KCNQ2 inh: KCNQ2 potassium channel inhibitors, primary screen, cell-based, CHO-K1, FluxOR thallium flux, B-score (AID 2156); 1.1% of 310,000 active; 20 min; stronger effect = lower value; only compounds with negative scores are shown here; some inactives read as strong as hits; B-score at 10 µM; O88943;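 active means fluorescence ratio B-score at most minus 3 library SDs, with starting brightness B-score within 2 library SDs, cut at about -5.5 in these data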
Target sequence (O88943 whole entry, looked up): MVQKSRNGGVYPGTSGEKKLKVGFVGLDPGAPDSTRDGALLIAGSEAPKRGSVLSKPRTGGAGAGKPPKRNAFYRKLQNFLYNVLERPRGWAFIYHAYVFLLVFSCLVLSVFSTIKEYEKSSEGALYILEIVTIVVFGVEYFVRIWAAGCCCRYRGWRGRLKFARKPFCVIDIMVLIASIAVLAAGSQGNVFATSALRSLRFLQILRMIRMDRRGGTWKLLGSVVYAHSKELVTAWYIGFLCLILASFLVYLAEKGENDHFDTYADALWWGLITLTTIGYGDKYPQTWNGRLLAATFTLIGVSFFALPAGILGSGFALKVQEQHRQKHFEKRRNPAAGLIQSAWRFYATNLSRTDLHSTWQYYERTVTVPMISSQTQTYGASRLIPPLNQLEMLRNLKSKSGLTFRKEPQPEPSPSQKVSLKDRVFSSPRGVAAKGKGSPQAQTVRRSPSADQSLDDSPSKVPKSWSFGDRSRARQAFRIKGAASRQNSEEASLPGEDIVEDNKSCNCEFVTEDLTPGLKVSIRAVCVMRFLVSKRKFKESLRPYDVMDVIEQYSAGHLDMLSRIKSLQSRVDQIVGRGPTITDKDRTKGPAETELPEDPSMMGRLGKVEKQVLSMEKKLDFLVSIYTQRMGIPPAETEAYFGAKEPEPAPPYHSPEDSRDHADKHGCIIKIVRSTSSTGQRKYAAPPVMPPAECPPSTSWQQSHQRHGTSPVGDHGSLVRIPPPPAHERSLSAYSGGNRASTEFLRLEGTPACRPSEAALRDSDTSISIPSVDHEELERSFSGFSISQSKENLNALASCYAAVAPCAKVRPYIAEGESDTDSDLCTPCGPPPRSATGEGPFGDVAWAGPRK
KCNQ2 inh baseline: also measured in KCNQ2 inh; calls as there; B-score; measured here: initial fluorescence intensity artifact check;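 brightness before thallium and not channel activity; 0 = typical well and far values either way flag optical interference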
Starred values were filed as active, the others as inactive; i = inactive. Only part of the results is shown. The share of hits here may be higher or lower than overall.

SMILES	KCNQ2 inh	KCNQ2 inh baseline
Cc1ccc(N2C(=O)CC(n3ccnc3)C2=O)cc1C (configuration not stated)	i	0.36
O=C(NC(=S)NCc1ccccc1)c1ccc(Br)cc1	i	-0.6
O=C(Nc1nc(-c2ccc(Cl)cc2)cs1)C1=COCCO1	i	-0.94
CCn1c(C(=O)O)c(CC(=O)N(C)c2ccc(OC)cc2OC)c2ccccc21	i	-0.08
CN=C1SC(CC(=O)Nc2ccc(F)cc2F)C(=O)N1/N=C/c1ccc(OC(F)F)c(OC)c1 (configuration not stated)	i	1.2
CCO[C@H]1OC(C(=O)N2CCOCC2)=C[C@@H](c2ccc3c(c2)OCO3)[C@@H]1CCCO	i	-2.8
N/C(=N\OC(=O)COc1ccc(Br)cc1)c1cccnc1	i	-1.5
CC1=CCC2C(=O)N(c3ccc(C)cc3)C(=O)C2C1 (configuration not stated)	i	0.14
Cc1csc(NC(=O)C2CCN(C(=O)c3ccccc3C)CC2)n1	i	1.8
CC(=O)Nc1ccc(NS(=O)(=O)c2ccc(C)cc2)cc1[N+](=O)[O-]	i	0.08
COCCn1c(=NC(=O)c2ccco2)sc2cc(C(=O)OC)ccc21	i	0.71
CC(=O)c1ccc(N2CCN(c3ccc4cc(S(=O)(=O)N5CCC(C)CC5)ccc4n3)CC2)cc1	i	0.93
Cc1ccc(C(=O)N2CCN(C34CC5CC(CC(C5)C3)C4)CC2)o1	i	1.9
O=C(CCN1C(=O)C2C3C=CC(C3)C2C1=O)Oc1ccc2ccccc2c1 (configuration not stated)	i	1.5
CN(Cc1ccc(Cl)s1)C(=O)CCl	i	0.96
COc1cccc(NC(=O)[C@H](NC(=O)[C@@H]2Cc3ccccc3CN2)c2ccccc2)c1	i	-0.16
Cc1cccn2c(=O)c3cc(C(=O)NCC(C)C)sc3nc12	i	0.39
CC(Oc1ccccc1)c1ccnc2nc(/N=C/N(C)C)nn12 (configuration not stated)	i	0.68
Nc1ccc2c(c1)CC(=O)c1ccccc1S2	i	0.39
CCc1cc2c(NC(Cc3ccccc3)C(=O)O)ncnc2s1 (configuration not stated)	i	-0.22
CCCN(C(=S)Nc1ccccc1)C1CCS(=O)(=O)C1 (configuration not stated)	i	1
CCOc1ccc(C(=S)N2CCCC2)cc1	i	2.9
COc1ccc(Nc2cc(C(=O)NCCCN3CCOCC3)c3ccccc3n2)c(OC)c1	i	0.26
COc1ccc(NC(=O)CN(C)C(=O)c2cn(-c3ccccc3)nc2-c2cccs2)cc1	i	0.1
Cc1ccc(SCc2nc(-c3ccccc3)no2)cc1	i	0.62
COc1ccc2nc(SCc3ccccc3)nc(C)c2c1	i	0.14
COCCNC(=O)c1ccc2ccccc2n1	i	0.59
CCC(=O)c1cn([C@H](CCC(OC)OC)CC(=O)OC(C)(C)C)cc1CC	i	1.1
C1=CC(c2cc3ccccc3o2)OC(CCc2ccccc2)C1 (configuration not stated)	i	-0.16
Cc1cccc(NC(=O)C2CCCN2C(=O)Oc2ccccc2)c1 (configuration not stated)	i	-2.3
CCOC1OC2C(CO)OC(n3cnc4c(N)ncnc43)C2O1 (configuration not stated)	i	-1.4
NC(=O)CS(=O)(=O)c1ccc(Cl)cc1	i	1.7
CCc1ccc(/C=N/NC(=O)c2nnn(-c3nonc3N)c2CN2CCc3ccccc32)cc1	i	0.78
Cc1ccc2c(c1)N(CC(=O)N1CCCCC1c1cccnc1)C(=O)CO2 (configuration not stated)	i	-1.7
O=C(c1ccc(C(F)(F)F)cc1)C1CCCN(C(=O)CCN2CCCO2)C1 (configuration not stated)	i	1.6
COc1ccc(CNc2ncccc2[N+](=O)[O-])cc1	i	-1.7
COCc1ccc(C(=O)N2CCCC(N(C)CCc3ccc(OC)c(OC)c3)C2)s1 (configuration not stated)	i	0.12
CCN1C(=O)/C(=C/c2ccc(OC)c(OC)c2)N=C1SCC(=O)NCc1ccco1	i	-0.9
Cc1cc(NC(=O)COC(=O)c2cc3c(s2)CCC(C)C3)no1 (configuration not stated)	i	1.1
COc1cc(C(=O)NCCOc2ccccc2C)cc(OC)c1OC	i	-1.4
O=C(COc1ccccc1Cl)NNC(=O)c1cc(S(=O)(=O)N2CCOCC2)ccc1N1CCCC1	i	0.33
Cc1cccc(NC(=O)CS(=O)(=O)Cc2ccccc2)n1	i	2.6
COc1ccc(-c2noc(CN(C(=O)c3ccc4c(c3)OCO4)C(C)C)n2)cc1	i	-2
Cc1ccc(/C=N/NC(=O)c2nnn(-c3nonc3N)c2C)o1	i	0.13
Cc1cc(C)cc(NC(=O)CC2Oc3ccc(C)cc3NC2=O)c1 (configuration not stated)	i	1.3
Cc1ccc(CC2CC(=O)N(c3nc4ccccc4s3)C2=O)cc1 (configuration not stated)	i	-0.94
O=C(N/N=C/C=C/c1ccco1)c1cccs1	i	0.17
CCCNc1c(N)c(=O)oc2ccccc12	i	-0.22
COc1cccc(CNC(=O)CN2C(=O)CCSc3ccc(S(=O)(=O)N4CCCC4)cc32)c1	i	-1.3
N#C/C(C(=O)NCc1ccccc1)=C1/N=C(NC(=O)c2cccs2)c2ccccc21	i	-0.05
CCOC(=O)N1CCN(C(=O)c2ccc(Cn3c(=S)[nH]c4cc(C(=O)OC)ccc4c3=O)cc2)CC1	i	0.37
COC(=O)c1c(NC(=O)C2CC2)sc2c1CCCC2	i	-0.03
COC(=O)C1CC(=O)N(c2ccc(OCc3ccccc3Cl)cc2)C1 (configuration not stated)	i	-0.45
Cc1ccc(C)c(NC(=O)COC(=O)CCC(=O)c2cccs2)c1	i	-0.5
Cc1cc(O)c2/c(=N\N)c(-c3csc(C)n3)coc2c1	i	1.5
CCN(CC)C(=O)CSc1nc2c(sc(=S)n2-c2ccccc2)c(=O)n1Cc1ccco1	i	0.54
O=C(c1ccccc1NS(=O)(=O)c1ccc(Br)s1)N1CCCC1	i	-1.6
CCOc1ccc(C2C(C(=O)c3ccc(C)o3)=C(O)C(=O)N2CCCN(CC)CC)cc1 (configuration not stated)	i	-0.48
COc1ccc2oc(C)c(C(=O)c3ccc(C)cc3)c2c1	i	-0.12
CN(C)Cc1c(-c2ccc(Cl)cc2)nc2ccc(Cl)cn12	i	-0.41
More entries:
SMILES	KCNQ2 inh	KCNQ2 inh baseline
CC(=O)N1CCc2cc(Br)cc(S(=O)(=O)NCCCN(C)Cc3ccccc3)c21	i	2.7
CC(=O)Nc1cccc(C(=O)NCCc2ccco2)c1	i	0.05
CCOc1ccc(N(CC(=O)NC2CCCCCC2)S(=O)(=O)c2c(C)noc2C)cc1	i	0.19
O=C(O)C/C(=C\c1ccc2c(c1)OCO2)c1nc2ccccc2s1	i	-0.16
N#Cc1nc(-c2ccc(F)cc2)oc1NCCCn1ccnc1	i	2.8
COc1ccc(CC(=O)Nc2ccc(C)cc2O)cc1S(=O)(=O)N1CCOCC1	i	1.3
CSc1ccc(C(c2c(C)[nH][nH]c2=O)c2c(C)[nH][nH]c2=O)cc1	i	-1.7
COc1cccc(-c2nn(-c3ccccc3)cc2CN2CCCO2)c1	i	0.01
Cc1ccccc1-c1cccc([C@@H]2C[C@H]3CN(Cc4cccnc4)C(=O)[C@]34CCCN24)c1	i	-1.4
O=C(COC(=O)CCOc1ccccc1)Nc1ccc(Cl)cn1	i	-1.3
CCC(C)N(C(=O)COc1ccccc1C(=O)NCc1ccccc1)C1CCS(=O)(=O)C1 (configuration not stated)	i	0.99
Cc1nnc(SCC(=O)N2CCC(C(N)=O)CC2)s1	i	1.4
CCc1ccc2nc(N(CCCN(C)C)C(=O)c3ccc(S(=O)(=O)N4CCc5ccccc5C4)cc3)sc2c1	i	-1.1
CCOC(=O)C(=CNc1cc(Cl)c(-c2ccco2)c(Cl)c1)C(=O)OCC	i	-4.1
COc1ccccc1/C=C/c1onc(C)c1S(=O)(=O)N1CCC(C(=O)NC2CCCCCC2)CC1	i	-0.02
Cc1ccc(N(C(=O)c2csnn2)C(C(=O)NC(C)(C)C)c2ccncc2)cc1 (configuration not stated)	i	1.7
CCc1ccc(/C=N/NC(=O)c2c[nH]c3ccccc23)s1	i	-0.18
CC(C)Oc1ccc(C(=O)Nc2ccccc2N2CCCC2)cc1	i	1.8
CCC(CC)C(=O)Nc1ccc([N+](=O)[O-])cn1	i	-2.4
O=C(COc1ccccc1[N+](=O)[O-])N(Cc1cccc(Br)c1)C1CCS(=O)(=O)C1 (configuration not stated)	i	-1.3
COc1cccc(NC(=O)c2cccnn2)c1	i	2.6
COc1ccccc1CC(=O)N(Cc1ccccc1)c1ccc(C)cc1	i	-0.17
O=C(NCc1nc(-c2ccc(Cl)cc2)no1)c1ccc2c(c1)OCO2	i	0.2
COc1cccc(CN(C)C(=O)c2ccc(NC(=O)CC3SC(N4CCCC4)=NC3=O)cc2)c1OC (configuration not stated)	i	1.6
COCCOc1ccc(C(F)(F)F)cc1Nc1nc2ccccc2o1	i	1.4
COc1cccc(/C=N/n2cncn2)c1OCC#N	i	0.51
CC(OC(=O)CN1C(=O)NC2(CCCC2)C1=O)C(=O)c1ccccc1 (configuration not stated)	i	1.3
CCc1ccc(C(=O)/C=C/c2ccc([N+](=O)[O-])o2)cc1	i	0.16
COCC(=O)NC1CCCCCC1	i	-0.08
COc1cccc(CN2CCN(C(=O)c3cc(-c4ccncc4)nc4ccc(C)cc34)CC2)c1	-5.9*	-1.5*
CCN(CC)S(=O)(=O)c1cc(NC(=O)CN2C(=O)NC(C)(c3ccccc3)C2=O)ccc1C (configuration not stated)	i	0.31
O=C(O)CCC(=O)Nc1ccccc1C(=O)Nc1ccccc1	i	-0.76
O=C(CC1Sc2ccccc2NC1=O)OC(C(=O)NCCc1ccccc1)c1cccnc1 (configuration not stated)	i	-0.13
CCn1c(SCC(=O)NC(C)C(C)C)nc2cc(S(=O)(=O)N3CCOCC3)ccc21 (configuration not stated)	i	-0.18
O=C(CSc1nc2ccsc2c(=O)n1Cc1ccccc1)NCc1ccco1	i	-1.6
Clc1ccc(CSc2nnc([C@@H]3CCCN3)o2)cc1	i	1.5

Single records, as listed above. Order of values: KCNQ2 inh | KCNQ2 inh baseline
Profile of `O=C(O)CCC(=O)Nc1ccccc1C(=O)Nc1ccccc1` = i | -0.76
Profile of `COc1cccc(/C=N/n2cncn2)c1OCC#N` = i | 0.51

(continued)
SMILES	KCNQ2 inh	KCNQ2 inh baseline
CCOc1ccc(S(=O)(=O)N2CC(=O)Nc3ccccc32)cc1C#N	i	-0.22
N#Cc1c(F)cccc1N1CCOCC1	i	0.21
O=C(O)C1CCC(=O)N(C2CCCCC2)C1c1ccccc1 (configuration not stated)	i	0.53
CCOc1ccc(S(=O)(=O)N(C)c2ccc(OCC(=O)NC3=NCCS3)cc2)cc1	i	-1.5
Cc1nc2oc3ccc(F)cc3c(=O)c2cc1C(=O)NC(C)(C)C	i	-0.54
NS(=O)(=O)c1ccc(CCNC(=O)Cn2c(=O)c3cccn3c3cccnc32)cc1	i	-0.6
Cc1cc(NC(=O)c2cc([N+](=O)[O-])cc([N+](=O)[O-])c2)no1	i	-2
CC1CCN(S(=O)(=O)c2cc(Cl)ccc2Br)CC1	i	-0.11
CCn1c(Cn2nnc(-c3ccccc3)n2)nnc1SCc1ccc(Cl)c(Cl)c1	i	2.6
COC(=O)c1c(-c2ccc(F)cc2)csc1NC(=O)c1ccco1	i	1
CCN(CC)CCN1c2ccccc2Sc2ccc3ccccc3c21	i	-0.5
CC(=O)/C(=N\Nc1ccccc1Cl)Sc1cccc2cccnc12	i	-0.46
COc1cc(C(c2c(C)[nH][nH]c2=O)c2c(C)[nH][nH]c2=O)cc(Br)c1OC	i	-0.98
CC(C)NC(=O)NNC(=O)c1nn(-c2ccc(F)cc2)ccc1=O	i	1.3
COc1cccc(NC(=O)CN2C(=O)NC3(CCCC3)C2=O)c1	i	-0.26
O=C(CCNC(=O)c1ccc(Br)cc1)NCc1ccccn1	i	0.46
COc1ccc(NC(=O)c2c(-c3ccccc3Cl)noc2C)c(OC)c1	i	-0.32
CCOc1ccc(/C=N/NC(=O)COc2ccccc2-c2ccccc2)cc1	i	2.6
CN(C)S(=O)(=O)c1ccc(Cl)c(NC(=O)CN2CCCC2)c1	i	1.4
CCOC(=O)N1CCN(C(=O)c2cc3c(=O)n(C)c4ccccc4c3n2C)CC1	i	0.35
CCOCCCn1c(SCc2nc3sc(C(=O)O)c(C)c3c(=O)[nH]2)nnc1-c1ccc(Cl)cc1	i	0.22

Taken from the results shown, 16 compounds:
SMILES	KCNQ2 inh	KCNQ2 inh baseline
NS(=O)(=O)c1ccc(CCNC(=O)Cn2c(=O)c3cccn3c3cccnc32)cc1	i	-0.6
Cc1cc(NC(=O)c2cc([N+](=O)[O-])cc([N+](=O)[O-])c2)no1	i	-2
CC1CCN(S(=O)(=O)c2cc(Cl)ccc2Br)CC1	i	-0.11
CCn1c(Cn2nnc(-c3ccccc3)n2)nnc1SCc1ccc(Cl)c(Cl)c1	i	2.6
COC(=O)c1c(-c2ccc(F)cc2)csc1NC(=O)c1ccco1	i	1
CCN(CC)CCN1c2ccccc2Sc2ccc3ccccc3c21	i	-0.5
CC(=O)/C(=N\Nc1ccccc1Cl)Sc1cccc2cccnc12	i	-0.46
COc1cc(C(c2c(C)[nH][nH]c2=O)c2c(C)[nH][nH]c2=O)cc(Br)c1OC	i	-0.98
CC(C)NC(=O)NNC(=O)c1nn(-c2ccc(F)cc2)ccc1=O	i	1.3
COc1cccc(NC(=O)CN2C(=O)NC3(CCCC3)C2=O)c1	i	-0.26
O=C(CCNC(=O)c1ccc(Br)cc1)NCc1ccccn1	i	0.46
COc1ccc(NC(=O)c2c(-c3ccccc3Cl)noc2C)c(OC)c1	i	-0.32
CCOc1ccc(/C=N/NC(=O)COc2ccccc2-c2ccccc2)cc1	i	2.6
CN(C)S(=O)(=O)c1ccc(Cl)c(NC(=O)CN2CCCC2)c1	i	1.4
CCOC(=O)N1CCN(C(=O)c2cc3c(=O)n(C)c4ccccc4c3n2C)CC1	i	0.35
CCOCCCn1c(SCc2nc3sc(C(=O)O)c(C)c3c(=O)[nH]2)nnc1-c1ccc(Cl)cc1	i	0.22

From PubChem BioAssay
